# Screening data from PubChem BioAssay.
# Ecoli growth: E. coli growth inhibition; 330,000 tested, 0.21% active; OD600 absorbance (test concentration not listed); AID 1053175; Escherichia coli growth, OD600, 23 h; active compounds read low;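 active means OD600 absorbance below the run mean of sample wells minus 3.6 SD, in any replicate, cut at about 0.56 in these data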;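 further: stock transfer was 300 nL into about 60 µL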
# HNF4A DNA FP: change in binding of human HNF4 alpha to DNA; activity change, % at 10 µM; P41235; HNF4a-FITC DNA binding, fluorescence polarization, 1 h; 360,000 tested, 0.3% active; AID 1224865; in the data active means activity change above about 30%, passing the limit was not always enough;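 further: controls were the assay level and a saturating level of protein; the project sought stronger binding though the title names inhibitors; some compounds called inactive have numbers as strong as hits; positive values seem to mean higher polarization but the record does not say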
# Target sequence (P41235 whole entry, looked up): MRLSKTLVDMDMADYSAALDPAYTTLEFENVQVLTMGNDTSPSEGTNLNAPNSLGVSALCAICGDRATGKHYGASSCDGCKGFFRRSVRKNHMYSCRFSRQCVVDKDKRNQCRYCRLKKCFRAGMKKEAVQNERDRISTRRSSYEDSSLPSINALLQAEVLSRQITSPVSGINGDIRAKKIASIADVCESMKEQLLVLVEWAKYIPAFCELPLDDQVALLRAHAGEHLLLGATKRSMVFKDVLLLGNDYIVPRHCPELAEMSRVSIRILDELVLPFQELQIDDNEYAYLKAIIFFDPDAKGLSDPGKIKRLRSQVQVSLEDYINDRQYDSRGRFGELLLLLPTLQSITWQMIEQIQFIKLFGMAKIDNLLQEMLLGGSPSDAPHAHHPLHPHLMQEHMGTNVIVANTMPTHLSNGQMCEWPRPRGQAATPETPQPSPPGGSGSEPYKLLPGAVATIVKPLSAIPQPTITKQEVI
# FGF22 binding: binders of recombinant human FGF22 by thermal shift; Q9HCT0; SYPRO orange fluorescence; percent of sucrose octasulfate shift, DMSO zero; calls only at 9.99 µM; 340,000 tested, 1.5% active; AID 651658;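 active means melting point raised past a set limit in the mean and every replicate; inconclusive means no clear call; three in four hits are not shown here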
# ALR inh: blocks human ALR sulfhydryl oxidase activity; purified ALR, DTT oxidation, H2O2 HRP-luminol luminescence; inhibition, % (concentration not given with the values); P55789; 290,000 tested, 3.8% active;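 active means mean and each replicate at 75% or more; inconclusive means only one of the two met; inactive means neither met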;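 further: stock transfer was 7.5 nL into about 7.5 µL; 0% = neutral wells and 100% = wells with inactivated enzyme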
# Vif A3G: HIV-1 Vif–A3G interaction blockers – biochemical, TR-FRET, GST-Vif 1-94, biotin-A3G peptide, dose response retest, primary screen (AID 1117319); 260,000 tested, 0.57% active; TR-FRET GST-Vif / biotin-A3G peptide binding; higher % means a stronger effect; test concentration not given here; strong numbers were not always called active; one-dose inhibition, %; IC50 in µM for titrated hits;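 active means above the screen mean plus three standard deviations and confirmed in dose response; inconclusive means results disagree or hit not tested in dose response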;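 further: Vif residues 1-94 fused to GST binding biotinylated APOBEC3G peptide 110-148; 0% = full assay without inhibitor and 100% = GST in place of GST-Vif; retest series ran down from 100 µM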
# AF4-AF9 inh: inhibitors of human MLL-AF4/AF9 interaction | 350,000 tested, 0.47% active | P42568 | inhibition, % at 10 µM | AlphaScreen, biotin-AF4 peptide binding to FLAG-AF9;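 active means every replicate reaching a set inhibition limit, whatever the replicate mean, cut at about 25% in these data; inconclusive means mean inhibition reaches that limit but some replicates miss it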;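 further: 0% = plate neutral control median and 100% = total signal loss; the record names both 10 and 1 µM as test concentration; the first replicate is given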
# Target sequence (P42568 whole entry, looked up): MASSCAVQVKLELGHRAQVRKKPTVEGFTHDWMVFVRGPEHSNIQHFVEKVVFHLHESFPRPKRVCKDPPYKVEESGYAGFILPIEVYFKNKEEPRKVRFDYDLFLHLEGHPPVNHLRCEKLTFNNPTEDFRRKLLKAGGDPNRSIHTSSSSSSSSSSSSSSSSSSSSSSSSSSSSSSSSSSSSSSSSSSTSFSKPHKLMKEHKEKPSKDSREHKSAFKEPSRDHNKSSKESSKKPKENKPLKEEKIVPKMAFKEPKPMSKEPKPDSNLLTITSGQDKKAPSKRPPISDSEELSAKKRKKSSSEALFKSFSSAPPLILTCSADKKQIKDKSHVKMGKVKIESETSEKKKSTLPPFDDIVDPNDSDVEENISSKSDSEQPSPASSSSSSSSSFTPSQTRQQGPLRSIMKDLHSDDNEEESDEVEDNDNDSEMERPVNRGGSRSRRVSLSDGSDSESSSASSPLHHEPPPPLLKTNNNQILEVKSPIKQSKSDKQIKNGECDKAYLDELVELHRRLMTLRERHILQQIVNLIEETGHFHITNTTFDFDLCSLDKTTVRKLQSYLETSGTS
# Ecoli rRNA inh: inhibits bacterial ribosomal RNA function over humanized ribosomes; E. coli WT GFP vs humanized-ribosome RFP mutants, fluorescence, 24 h; active compounds read low; DMSO median 0, no signal -100; GFP signal change (wild-type ribosome), % (concentration not given with the values); 350,000 tested, 1.6% active; AID 720706;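 active means significant combined selectivity score with lowered wild-type GFP, culture density cut under 30%, mutant RFP and density less affected; inactive means any of these conditions unmet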; further: one replicate is shown; some compounds called inactive have numbers as strong as hits
# Ecoli rRNA inh OD600: second read-out of Ecoli rRNA inh, no call of its own (marks repeat the call); OD600 change, %; measured here: OD600 growth;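 optical density of the mix in the first replicate; 0 = DMSO median and -100 = no signal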
# Ecoli rRNA inh RFP: also measured in Ecoli rRNA inh; calls as there; RFP signal change, %; measured here: RFP humanized mutant strains;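 first replicate; 0 = DMSO median and -100 = no signal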
# * = called active by the depositor; i = inactive; ? = inconclusive; nt = not tested or not shown; & = joins results of further samples. Not all compounds are listed. The share of hits here may be higher or lower than overall.
Compound	FGF22 binding	Ecoli rRNA inh OD600	ALR inh	Ecoli rRNA inh	Ecoli rRNA inh RFP	Vif A3G	Ecoli growth	HNF4A DNA FP	AF4-AF9 inh
CCCN(C)C[C@H]1Oc2ncc(Br)cc2C(=O)N([C@@H](C)CO)C[C@@H]1C	i	12&1	nt	4&0	-3.0&-3.1	2%	nt	2.5	-7.7&-1.0&-1.8
CNc1nnc(CSc2nc(C)cc(C)n2)s1	nt	nt	2	nt	nt	4%&-3%	0.72	-1.0	nt
O=C(CSC1=NS(=O)(=O)c2cc(F)ccc2N1)Nc1cccc(F)c1	i	0	97*	0	-1.8	-1%	0.61	3.6	-3.7
Cc1noc(C)c1S(=O)(=O)Nc1ccc2c(c1)C(=O)N([C@H](C)CO)C[C@@H](C)[C@@H](CN(C)C(=O)Nc1ccc3c(c1)OCO3)O2	i	-1	nt	4	-2.1	nt	nt	nt	-3.4
Cc1ccc2c(SCC(=O)NCc3ccco3)nc(-c3ccc(F)cc3)nc2c1	nt	nt	-5	nt	nt	-4%	0.76	2.2	nt
CC(C)(C)CC(=O)Nc1ccccc1N1CCN(c2ccc(F)cc2)CC1	i	-15	-2	-14	0.9	nt	0.62	-1.1	6.0
CCCC(=O)Nc1ccc2c(c1)OC[C@@H](C)N(C(=O)c1ccccn1)C[C@H](C)[C@@H](OC)CN(C)C2=O	i	2	nt	3	0.3	nt	nt	nt	-28
CC(C)[C@H](NC(=O)c1cccc(CN(Cc2ccccc2)C(=O)c2ccccc2)c1)C(=O)O	i	nt	24	nt	nt	nt	0.69	-4.5	-2.9
C[C@@H]1CN([C@@H](C)CO)C(=O)c2cc(NC(=O)c3ccccc3)ccc2O[C@@H](C)CCCCO[C@H]1CN(C)C(=O)CCC(F)(F)F	i	-6	nt	-1	0.1	nt	nt	nt	-6.9
O=C(Cc1cccc2ccccc12)OCn1nnc2ccccc2c1=O	i	-13*	-22	-18*	3.2*	3%	0.77	1.6	3.3
CN(C)S(=O)(=O)c1ccc(Cl)c(NC(=O)CN2CCNC(=O)C2)c1	i	-3	-10	0	-3.1	9%	0.68	5.3	-7.9
Cc1noc(C)c1NC(=O)Nc1ccc2c(c1)CC(=O)N([C@@H](C)CO)C[C@@H](C)[C@@H](CN(C)C(=O)Nc1ccc(F)cc1)O2	i	2	nt	3	-1.5	nt	nt	nt	-0.9
S=C(Nc1ccccc1)N(CCN1CCOCC1)Cc1cccc(Cl)c1	i	1	nt	-2	1.8	5%	0.68	1.4	1.7
Cc1cc(C(=O)COC(=O)c2ccc(F)cc2)c(C)n1C	i	14	-10	3	-2.2	nt	0.71	-2.7	-12
C/C=C/c1ccc(OCC(=O)Nc2cc(S(=O)(=O)N3CCOCC3)ccc2N2CCCC2)c(OC)c1	i	0	nt	-5	12	3%	0.64	-2.1	5.9
CO[C@@H]1CN(C)C(=O)c2cc(NC(=O)Nc3ccccc3Cl)ccc2OC[C@@H](C)N(C(C)=O)C[C@H]1C	i	-7	nt	-3	-1.0	nt	nt	nt	0.6
COC(=O)c1c(NC(=O)CN2CCN(C(=O)c3ccco3)CC2)c2cc(C)ccc2n1C	nt	nt	nt	nt	nt	-1%	0.68	1.4	nt
COc1ccc(OCc2n[nH]c(=S)n2N)cc1	i	8	-8	3	-5.2	-9%	0.63	-1.4	-6.7
CC(C)n1c(N2CCN(CC(=O)Nc3ccc4c(c3)OCCO4)CC2)nc2ccccc21	nt	nt	-5	nt	nt	-2%	0.69	-5.0	nt
COc1ccccc1NC(=O)COC(=O)CCS(=O)(=O)c1ccc(C)cc1	i	6	15	7	0.9	nt	0.73	-2.8	-3.1
COc1ccc2c(-c3ccc(OCCN4CCCCC4)cc3)c(-c3ccccc3OC)sc2c1	nt	nt	nt	nt	nt	-5%	0.7	-1.2	nt
CCC(=O)N1C[C@H](O)COC[C@H]2O[C@@H](CC(=O)N3CCCCC3)CC[C@@H]21	i	5	nt	1	2.2	nt	nt	nt	-2.9
CC(=O)Nc1ccc(S(=O)(=O)N(C)CC(=O)Nc2ccc(F)c(F)c2F)cc1	i	13	7	4	0.0	-2%	0.7	0.9	2.1
CC1(c2ccccc2)CC(c2ccccc2)=Nc2ccccc2N1 (centres undefined)	nt	nt	nt	nt	nt	13%	0.65	0.5	nt
COc1ccc(C(=O)COC(=O)c2ccc(Cl)nc2)cc1OC	i	3	nt	2	0.5	9%	0.64	-3.1	-0.1
O=C(NNC(=S)Nc1ccccc1)c1cccc(Br)c1	nt	nt	74	nt	nt	14%	0.64	4.4	nt
Cc1ccc(O)c(C=Nc2ccc3[nH]ncc3c2)c1	nt	nt	?	nt	nt	nt	0.7	0.8	nt
O=C(Cn1c(SCC(=O)NC2CCCC2)nnc1-c1ccncc1)Nc1ccc2c(c1)OCO2	nt	nt	-5	nt	nt	4%	0.7	-2.6	nt
Cc1ccc(C2=C/C(=C\c3cccnc3)C(=O)O2)cc1	i	2	-8	0	0.6	-4%	0.74	-2.3	1.6
COc1ccc2cc(C(C)c3nc4ccccc4c(=O)n3N)ccc2c1 (centres undefined)	nt	nt	1	nt	nt	0%	0.69	-1.0	nt
COc1ccc(CC(=O)O/N=C(\N)c2cccc([N+](=O)[O-])c2)cc1	i	-4	15	-3	-5.2	nt	0.68	2.2	-2.6
O=C(COC(=O)c1cc(Cl)ccc1O)NCCNC(=O)COC(=O)c1cc(Cl)ccc1O	i	9	0	7	-3.2	nt	0.69	5.5	-1.9
CCOc1ccc(/C=N/OCC(=O)Nc2ccc(OCc3ccccc3)cc2)cc1OC	i	2	8	-4	-2.1	-2%	nt	3.0	-2.7
CC(c1ccco1)N(C(=O)C12CC3CC(CC(C3)C1)C2)c1ccccn1 (centres undefined)	nt	nt	-11	nt	nt	5%	0.75	2.4	nt
c1ccc(-c2nnc(CN3CCC4(CC3)OCCO4)o2)cc1	nt	nt	nt	nt	nt	14%	0.79	-3.1	nt
CCC(C)(C)NC(=O)C(c1ccc(OC)cc1)N(CC1CCCO1)C(=O)CCC(=O)Nc1cc(C)on1 (centres undefined)	nt	nt	-4	nt	nt	7%	0.73	-0.7	nt
CS(=O)(=O)NNC(=O)C1Cc2c(ccc3ccccc23)O1 (centres undefined)	i	10	-6	10	-0.4	-8%	0.68	2.9	-2.5
O=C(/C=C/c1ccc(OC2CSC2)cc1)c1ccc(Cl)cc1	nt	nt	-1	nt	nt	-2%	0.66	-4.5	nt
CCOC(=O)c1c(C)nc(-c2ccccc2)nc1NC(=O)CC	nt	nt	-2	nt	nt	-1%	0.64	1.1	nt
CCOC(=O)C1=C(C)N(CCCC(=O)O)C(=O)NC1c1ccc(OC)cc1 (centres undefined)	i	2	-3	5	-5.9	nt	0.65	1.3	-3.3
O=C(O)C1CCC(=O)N1Cc1ccc(F)cc1 (centres undefined)	i	-3	-10	14	1.8	13%	0.62	-3.1	-2.7
Cn1c(SCc2ccccc2F)nnc1-c1cnccn1	nt	nt	-2	nt	nt	2%	0.69	-1.6	nt
COc1cc2c(cc1NC(=O)CC1SC(N3CCCC3)=NC1=O)oc1ccccc12 (centres undefined)	nt	nt	nt	nt	nt	74%	0.67	6.6	nt
O=C(N[C@H]1CC[C@@H](CCNC(=O)C2CCOCC2)O[C@H]1CO)c1ccccn1	i	7	nt	2	0.0	nt	nt	nt	-1.8
Cc1ccc(CCNS(=O)(=O)c2c(C)nc3sccn3c2=O)cc1	i	4	-7	-2	-2.1	nt	0.75	-2.7	-1.2
O=C(NC1CC2CCCC(C1)N2Cc1ccccc1)c1cccc(Cl)c1 (centres undefined)	i	6	1	23	0.1	nt	0.65	0.4	2.1
Cc1ccnc2nc(C(=O)OCCOc3ccc(Cl)cc3)nn12	i	14	-10	7	3.6	7%	0.63	1.2	-0.8
COc1ccc(NS(=O)(=O)c2cccc(C(=O)N/N=C/c3cccs3)c2)cc1	i	4	3	2	1.8	23%	nt	-0.5	-2.6
Nc1ccn([C@@H]2O[C@H](CNS(=O)(=O)c3cc4ccccc4s3)[C@@H](O)[C@H]2O)c(=O)n1	i	16	nt	18	3.4	-3%	nt	5.5	-0.3
O=C1COc2ccccc2CN1	nt	nt	nt	nt	nt	-11%	0.77	-2.2	nt
COc1ccc(C(C(=O)OCCN(C)C)c2ccccc2)cc1 (centres undefined)	nt	nt	-18	nt	nt	3%	0.74	-1.1	nt
CC1=C(C(=O)NCc2ccc(Cl)cc2)C2(CCC(C)CC2)OC1=O (centres undefined)	i	-3	-3	-7	-1.9	18%	0.71	2.2	-8.1
CO[C@@H]1CN(C)C(=O)c2ccc(NC(=O)NC(C)C)cc2OC[C@H](C)NC[C@@H]1C	i	3	nt	3	-3.1	nt	nt	nt	-1.3
COc1cc(/C=c2\sc3n(c2=O)CCCN=3)ccc1O	nt	nt	99*	nt	nt	-5%	nt	3.7	nt
O=C(NN(C(=O)c1ccccc1)c1cccs1)c1ccccc1	i	-12	nt	2	-5.9	-7%	0.64	0.7	-5.6
C=CCNC(=S)NNC(=O)c1cccc(Br)c1	i	nt	36	nt	nt	nt	0.7	0.5	1.5
COc1ccc(S(=O)(=O)Nc2cc3c4c(oc3c3ccccc23)CC(C)(C)CC4=O)cc1	nt	nt	nt	nt	nt	6%	0.77	3.2	nt
C[C@@H]1CN([C@H](C)CO)C(=O)c2cc(NC(=O)Nc3ccccc3)ccc2O[C@H]1CN(C)Cc1ccccc1	i	8	nt	5	3.6	nt	nt	nt	-5.4
Cc1cc(C)nc(NC(=O)/C=C/c2ccccc2Cl)c1	nt	nt	4	nt	nt	14%	0.65	1.1	nt
COc1ccc(N2CC(C(=O)N3CCC4(CC3)CC(=O)c3ccccc3O4)CC2=O)cc1 (centres undefined)	i	-4	-2	-4	1.6	-1%	0.69	3.0	-0.3

# Compound profiles, as listed above. Order of values: FGF22 binding	Ecoli rRNA inh OD600	ALR inh	Ecoli rRNA inh	Ecoli rRNA inh RFP	Vif A3G	Ecoli growth	HNF4A DNA FP	AF4-AF9 inh
# `Cn1c(SCc2ccccc2F)nnc1-c1cnccn1` as listed: nt	nt	-2	nt	nt	2%	0.69	-1.6	nt
# `COc1ccc(CC(=O)O/N=C(\N)c2cccc([N+](=O)[O-])c2)cc1` as listed: i	-4	15	-3	-5.2	nt	0.68	2.2	-2.6

# Other entries follow.
Compound	FGF22 binding	Ecoli rRNA inh OD600	ALR inh	Ecoli rRNA inh	Ecoli rRNA inh RFP	Vif A3G	Ecoli growth	HNF4A DNA FP	AF4-AF9 inh
COc1ccccc1-c1c(C)nn2c(N3CCOCC3)cc(C)nc12	i	10	1	9	0.3	-9%	0.66	0.9	-0.4
O=C(CC1CCCCC1)NCc1ccco1	nt	7	36	11	2.3	3%	0.7	0.9	0.9
CC(C)NC(=O)N(C)C[C@H]1OCCCC[C@H](C)Oc2ccc(NC(=O)NC3CCCCC3)cc2C(=O)N([C@@H](C)CO)C[C@H]1C	i	-1	nt	1	-2.6	nt	nt	nt	-1.5
O=c1[nH][nH]c(C(F)(F)F)c1C=Nc1cccc(Cl)c1	nt	nt	0	nt	nt	19%	0.68	-0.4	nt
